Screening data from PubChem.
RGS16-Gao HTS: modulates binding between human RGS16 and Galphao; bead-based flow cytometry RGS16-Galphao binding, fluorescence; actives lie on both sides; O15492+P09471; binding response (% of control), % at 10 µM; 0.38% of 220,000 active; AID 1441;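 active = below 25% or above 175%, edge rows of some plates excepted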;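 also: Galphao activated by GDP with aluminum fluoride before binding; 100% = wells without compound and 0% = beads without RGS; some results beyond the cut were filed as inactive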
Target sequence (O15492 whole entry, looked up): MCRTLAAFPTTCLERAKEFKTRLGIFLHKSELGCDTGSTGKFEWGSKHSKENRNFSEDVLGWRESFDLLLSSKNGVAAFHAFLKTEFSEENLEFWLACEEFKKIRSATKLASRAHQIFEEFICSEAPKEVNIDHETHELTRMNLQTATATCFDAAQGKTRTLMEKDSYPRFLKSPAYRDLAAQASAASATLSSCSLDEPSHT
Target sequence (P09471 whole entry, looked up): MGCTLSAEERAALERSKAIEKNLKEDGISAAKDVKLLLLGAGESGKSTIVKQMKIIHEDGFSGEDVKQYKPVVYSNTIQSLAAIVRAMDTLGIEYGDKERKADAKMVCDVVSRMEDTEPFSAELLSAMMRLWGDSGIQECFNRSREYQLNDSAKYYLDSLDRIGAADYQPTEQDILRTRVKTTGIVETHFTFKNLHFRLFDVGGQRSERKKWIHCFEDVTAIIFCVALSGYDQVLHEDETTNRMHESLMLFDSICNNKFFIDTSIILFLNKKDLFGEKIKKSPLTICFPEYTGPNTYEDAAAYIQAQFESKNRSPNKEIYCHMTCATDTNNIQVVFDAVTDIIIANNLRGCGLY
PKD1 kinase inh: PKD1 (human) kinase inhibition. inhibition, %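 (about 10 µM by stock and volumes)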. Q15139. PKD1 kinase fluorescence polarization assay. 0.056% of 200,000 active;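 active = inhibition of 50% or more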;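 also: controls were vehicle for no effect and a reference inhibitor for full effect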
Insulin prom inh: TRM-6 insulin promoter activity inhibition; TRM-6 cells (human fetal islet line), insulin promoter-eGFP reporter, imaging; reporter expression induced with tamoxifen; inhibition, % at 2 µM; 0.9% of 130,000 active; AID 1273;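 active = inhibition above the mean plus 3 SD, with well images judged a real hit on visual review, cut at about 60% in these data, passing the limit was not always enough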
GALR2 agonist: activates the human galanin receptor 2 | O43603 | GALR2-expressing cells, agonist activation read-out | activation, %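 (tested at 5 µM)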 | 0.48% of 140,000 active | AID 803;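 active = above mean plus 3 SD of all compounds, about 5% in these data, not always enough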;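 also: 0% = vehicle buffer wells and 100% = reference agonist at full effect; tested in CHO reporter cells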
Target sequence (O43603 whole entry, looked up): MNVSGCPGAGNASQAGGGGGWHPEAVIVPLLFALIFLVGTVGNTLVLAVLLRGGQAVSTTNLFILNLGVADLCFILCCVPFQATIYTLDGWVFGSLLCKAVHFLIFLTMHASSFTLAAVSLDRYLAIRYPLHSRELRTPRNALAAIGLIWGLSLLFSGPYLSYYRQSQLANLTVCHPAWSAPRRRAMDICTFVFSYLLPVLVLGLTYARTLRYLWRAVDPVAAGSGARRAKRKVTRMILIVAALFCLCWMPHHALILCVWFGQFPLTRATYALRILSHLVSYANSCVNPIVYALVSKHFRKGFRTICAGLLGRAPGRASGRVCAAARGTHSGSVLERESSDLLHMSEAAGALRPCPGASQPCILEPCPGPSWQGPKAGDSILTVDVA
HSV replic up: HSV replication enhancement. AID 1956. 0.005% of 220,000 active. HSV replication augmentation in cells, fold increase. maximum fold increase;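 active = peak rise of 1.5-fold or more in the series; tested in PC3 cells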;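 also: first round at 10 µM; read as green reporter fluorescence; hits show the peak of a series up to 25 µM; 1 = signal of infected wells without compound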
Insulin prom inh cell count: also measured in Insulin prom inh; calls as there; normalized cell count, %; measured here: cell count, toxicity; reference of the scale not given here;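 cells exposed to compound for 48 h; stained nuclei by imaging scaled within each plate; lower means fewer cells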
HSV replic up primary fold: recorded beside HSV replic up, whose call it bears; fold increase; compound at 10 µM; measured here: primary screen fold increase 10 uM; tested in PC3 cells;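 GFP signal in the first replicate; 1 = infected wells without compound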
Starred values were filed as active, the others as inactive; i = inactive; . = no result given.

SMILES	RGS16-Gao HTS	PKD1 kinase inh	Insulin prom inh	Insulin prom inh cell count	GALR2 agonist	HSV replic up	HSV replic up primary fold
S=C(c1ccc(-c2cccc(Cl)c2)o1)N1CCOCC1	97	-5	-107	89	-1.4	i	1.1
O=C(Nc1ccc(N=Nc2ccccc2)cc1)c1cccc(Cl)c1	101	-8	-11	98	-4.4	i	1.1
CCOc1ccc(C(=O)c2ccc(OCC)c(N)c2)cc1N	73	8	.	.	-1.0	i	0.85
COc1ccccc1N1CCN(S(=O)(=O)Cc2ccccc2Cl)CC1	100	-3	89*	115*	-0.3	i	0.73
CCCC(NS(=O)(=O)c1ccc(OC)cc1)C(=O)O (stereo unspecified)	102	-14	.	.	-3.7	i	0.84
CC(=O)Nc1ccc(NC(=O)CCc2nc3ccccc3c(=O)[nH]2)cc1	91	-6	.	.	.	i	0.95
CCN1CCc2c(C#N)c(N3CCCCC3)nc(NCc3ccccc3)c2C1	160	4	-11	86	1.8	i	0.97
CCCCn1nc(C(=O)Nc2cc(S(=O)(=O)N(C)C)ccc2C)c2ccccc2c1=O	102	.	.	.	.	i	0.92
O=C1CSC(c2cccc(F)c2)N1c1ccc(O)cc1 (stereo unspecified)	22	-6	-27	81	-3.0	i	0.85
Cc1c(C(=O)N2CCOCC2)oc2ccc(S(=O)(=O)N3CCCC3)cc12	90	-4	20	207	0.0	i	0.82
CCOc1ccc(NS(=O)(=O)c2ccc(OCC)c3ncccc23)cc1	98	-6	21	78	-0.9	i	0.81
Cc1ccc(OCCn2cnc3sc(C(N)=O)c(C)c3c2=O)cc1	98	1	24	74	.	i	0.94
CCN(CC)CCCN1C(=O)C(O)=C(C(=O)c2ccco2)C1c1ccc(C)o1 (stereo unspecified)	.	1	-5	108	-0.6	i	1.1
O=c1oc2ccccc2n1CCCOc1ccccc1	115	0	29	100	-1.1	i	0.65
O=C1CCCC(O)=C1C=NCc1ccccc1	103	0	6	78	.	i	0.99
O=C(NNc1ccc([N+](=O)[O-])cc1)C12CC3CC(CC(C3)C1)C2	107	-10	6	120	-0.6	i	0.76
CNC(=O)C1=C(C)Nc2nc3ccccc3n2C1c1cccc(OC)c1 (stereo unspecified)	102	-5	.	.	-2.4	i	0.96
CCCCSc1ccc2nc(-c3ccc(C#N)cc3)cn2c1	75	-5	.	.	-1.1	i	0.92
CC1=NC(=O)C(N=Nc2ccccc2C)N1c1ccccc1 (stereo unspecified)	.	-4	44	162	-2.3	.	.
CCc1ccccc1NC(=O)CN(C)C(=O)CSc1nnc(Nc2ccc(C)cc2)s1	151	-15	.	.	-0.2	i	0.97
O=C(c1ccccc1)c1coc2c1C(=O)c1ccccc1C2=O	101	-1	-80	50	.	i	1.1
Cc1ccc(C2c3c(oc4ccc(Cl)cc4c3=O)C(=O)N2CCCN2CCOCC2)o1 (stereo unspecified)	102	12	.	.	-3.2	i	1.1
O=C(NCCN1CCOCC1)c1ccc(Cl)cc1[N+](=O)[O-]	102	-5	-7	57	-1.9	i	1.1
CCC1CCCCN1CCNS(=O)(=O)c1ccc2c(c1)CCN2C(C)=O (stereo unspecified)	100	-2	17	92	-1.2	i	0.95
Cc1ccc(SCc2cc(=O)n(C)[nH]2)cc1	104	-5	.	.	.	i	0.95

Next section:
SMILES	RGS16-Gao HTS	PKD1 kinase inh	Insulin prom inh	Insulin prom inh cell count	GALR2 agonist	HSV replic up	HSV replic up primary fold
COC(=O)c1ccccc1OCCOCCOc1cccc2ccc(C)nc12	101	-9	.	.	.	i	0.94
COc1cc(C(=O)NNC(=S)NCc2ccco2)cc(OC)c1OC	103	11	.	.	.	i	1.1
O=C1C2CC=C(Cl)CC2C(=O)N1CCCCCCN1C(=O)C2CC=C(Cl)CC2C1=O (stereo unspecified)	86	4	-23	96	0.4	i	0.95
CCCCOC(=O)c1ccc(NC(=O)c2c(Cl)ccc(Cl)c2OC)cc1	110	10	-38	88	-0.4	i	0.99
COCCn1c(C)cc(C(=O)COC(=O)c2ccc(-n3nc(C)cc3C)cc2)c1C	105	-3	.	.	-0.5	i	0.89
O=C(COc1ccccc1)Nc1ccc2c(c1)nc1n2CCSC1	103	4	.	.	-2.8	i	0.88
Cc1ccccc1-n1nnnc1SCC(=O)Nc1ccc(S(=O)(=O)N2CCCC2)cc1	99	-11	-32	238	1.2	i	1.3
O=C(Nc1ccc(Br)cc1)/C(=C/c1cccc([N+](=O)[O-])c1)NC(=O)C1CCCCC1	91	-6	.	.	-1.4	i	0.82
CCc1ccc2[nH]c(=O)c(C(c3nnnn3CCOC)N3CCN(c4ccc(F)cc4)CC3)cc2c1 (stereo unspecified)	105	3	-22	104	-0.9	i	1
CCCn1nc2cc(C(=O)NCc3ccc4c(c3)OCO4)ccc2c1OCC	99	0	.	.	-2.7	i	0.88
Cn1cccc1C(=O)NC(=O)COC(=O)c1ccccc1Sc1ccccc1C#N	103	3	0	126	-1.6	i	1
Cc1ccc(NC(=O)c2ccccc2NS(=O)(=O)c2ccc(F)cc2)cc1S(=O)(=O)N1CCCCC1	112	7	.	.	-0.1	i	0.86
O=C1C(SC(F)(F)C(F)F)=C(C(F)(F)F)OC2C3C=CC(C3)C12 (stereo unspecified)	99	-1	.	.	-0.9	i	1
COC(=O)c1nn(-c2nc(-c3cccc(OC)c3)cc(C(F)(F)F)n2)cc1[N+](=O)[O-]	104	-6	33	91	.	i	0.87
Cc1ccc(S(=O)(=O)NC(=O)Nc2nnc(C3CC3)s2)cc1	100	-13	-54	139	-1.1	i	1.1
CC1(C)Cc2ccccc2C(/C(=N/O)C(N)=O)=N1	106	2	-41	44	-0.8	i	0.9
Cc1ccccc1C(=O)OCc1nnc(-c2ccc(Cl)cc2)o1	103	2	.	.	.	i	1.1
Cc1ccc(NC(CC(=O)c2ccccc2)C(=O)O)cc1Cl (stereo unspecified)	96	.	.	.	.	i	1.1
CC1CCN(C(=O)CN(C)S(=O)(=O)c2cccc3nsnc23)CC1	98	-14	-57	99	-3.3	i	1.1
COc1ccccc1-n1c(SCC(=O)O)nnc1-c1ccc(S(=O)(=O)N2CCCCC2)cc1	105	7	7	158	-1.5	i	1.1
COc1cc(NC(=O)c2ncn[nH]2)cc(OC)c1OC	.	-6	6	91	0.3	i	0.89
Cc1nnc(SCCn2c(N3CC(C)CC(C)C3)nc3c2c(=O)n(C)c(=O)n3C)s1 (stereo unspecified)	104	-4	-169	41	-2.3	i	0.88
Clc1ccccc1Cn1nnc2c(Nc3ccccc3)ncnc21	101	0	.	.	-1.3	i	1.1
Cc1nc(N2CCOCC2)nc(OC(C)C)c1[N+](=O)[O-]	103	-1	6	103	0.0	i	1.1
Cc1c(Cl)cccc1NC(=S)NC1CCN(Cc2ccccc2)CC1	104	0	6	104	0.0	i	0.88

Molecules above with a Cl atom:
SMILES	RGS16-Gao HTS	PKD1 kinase inh	Insulin prom inh	Insulin prom inh cell count	GALR2 agonist	HSV replic up	HSV replic up primary fold
S=C(c1ccc(-c2cccc(Cl)c2)o1)N1CCOCC1	97	-5	-107	89	-1.4	i	1.1
O=C(Nc1ccc(N=Nc2ccccc2)cc1)c1cccc(Cl)c1	101	-8	-11	98	-4.4	i	1.1
COc1ccccc1N1CCN(S(=O)(=O)Cc2ccccc2Cl)CC1	100	-3	89*	115*	-0.3	i	0.73
Cc1ccc(C2c3c(oc4ccc(Cl)cc4c3=O)C(=O)N2CCCN2CCOCC2)o1 (stereo unspecified)	102	12	.	.	-3.2	i	1.1
O=C(NCCN1CCOCC1)c1ccc(Cl)cc1[N+](=O)[O-]	102	-5	-7	57	-1.9	i	1.1
O=C1C2CC=C(Cl)CC2C(=O)N1CCCCCCN1C(=O)C2CC=C(Cl)CC2C1=O (stereo unspecified)	86	4	-23	96	0.4	i	0.95
CCCCOC(=O)c1ccc(NC(=O)c2c(Cl)ccc(Cl)c2OC)cc1	110	10	-38	88	-0.4	i	0.99
Cc1ccccc1C(=O)OCc1nnc(-c2ccc(Cl)cc2)o1	103	2	.	.	.	i	1.1
Cc1ccc(NC(CC(=O)c2ccccc2)C(=O)O)cc1Cl (stereo unspecified)	96	.	.	.	.	i	1.1
Clc1ccccc1Cn1nnc2c(Nc3ccccc3)ncnc21	101	0	.	.	-1.3	i	1.1
Cc1c(Cl)cccc1NC(=S)NC1CCN(Cc2ccccc2)CC1	104	0	6	104	0.0	i	0.88

Following part.
SMILES	RGS16-Gao HTS	PKD1 kinase inh	Insulin prom inh	Insulin prom inh cell count	GALR2 agonist	HSV replic up	HSV replic up primary fold
COc1cc(NS(=O)(=O)c2ccc(NS(=O)(=O)c3ccccc3)cc2)nc(OC)n1	66	9	0	96	-1.1	i	0.82
Cc1cc(C)cc(-n2nnc(C(=O)NCc3ccc(Cl)cc3)c2N)c1	97	-16	.	.	-0.6	i	0.97
CCCCn1c(=O)[nH]c(=O)c2c1nc(-c1ccccc1F)n2Cc1ccccc1OC	102	10	36	153	.	i	0.93
O=C(CSCc1ccc(F)cc1)N1CCN(c2ccccc2)CC1	107	-2	-34	195	-2.5	i	0.91
Cc1ccc2c(c1)/C(=C/c1ccco1)C(=O)N2	106	-4	14	134	.	.	.
COc1ccc(CC(=O)Nc2ccc(N3CCCCC3)cc2)cc1	106	-2	-20	134	.	i	0.89
Cc1ccc(SC(C)C(=O)Nc2ccccc2-c2ccccc2)cc1 (stereo unspecified)	94	0	39	117	-1.0	i	1.1
COc1cc(NC(=O)COc2ccc(Br)cc2)ccc1NC(=O)C(C)C	101	-6	.	.	.	i	0.94
Cc1nc(CCNC(=O)CC2C(=O)NCCN2Cc2ccc(F)cc2)sc1C (stereo unspecified)	105	-4	.	.	.	i	1.1
CC(C)Sc1nc2c(cnn2-c2ccc(F)cc2)c(=O)[nH]1	101	-5	.	.	-1.9	i	0.9
O=C(CSc1nc2cc(Cl)c(Cl)cc2[nH]1)c1ccc2c(c1)OCO2	101	.	.	.	.	i	1.2
O=C(c1cc2ccccc2o1)N(C1CC1)C1(C(=O)Nc2ccccc2)CCCC1	99	-8	.	.	.	i	1
COc1cc(-n2c(=O)c3ccccc3n(CC(=O)c3ccccc3)c2=O)cc(OC)c1OC	103	-4	41	132	.	i	1.1
Cc1ccc(OC(=O)c2cc3ccccc3o2)cc1	105	-1	.	.	-0.6	i	0.95
Cc1cccc(Nc2nc(NCCCN3CCOCC3)nc(N)c2[N+](=O)[O-])c1	106	2	32	120	0.7	i	0.71
CCOC(=O)COc1ccc(N)cc1CC(NC(C)=O)(C(=O)OCC)C(=O)OCC	93	-5	.	.	-0.1	i	0.67
COc1cc(OC)cc(C(=O)N[C@H](C(=O)Nc2nnc(C3CC3)s2)C(C)C)c1	101	1	.	.	.	i	0.97
CCOc1c(S(=O)(=O)NC2CC(C)(C)NC(C)(C)C2)ccc(Cl)c1Cl	102	-5	.	.	.	i	0.55
COc1ccc(CNC(=O)C2CSC(c3ccc(OC)cc3)N2C(C)=O)cc1 (stereo unspecified)	82	-11	.	.	-4.0	i	0.93
O=C(Nc1cccnc1)C1COc2ccccc2O1 (stereo unspecified)	92	-11	8	149	-1.2	i	1.1
CCN1CCCC1CNCc1ccc(Cl)cc1Cl (stereo unspecified)	-20	-3	-50	133	-0.5	i	1.3
O=C(CN1CCN(Cc2ccc(Cl)cc2)C1=O)NCCN1CCCC1	102	-5	-5	99	0.8	.	.
CCC1S/C(=C(\C#N)C(=O)NCc2ccco2)N(c2ccc(F)cc2)C1=O (stereo unspecified)	114	-13	0	62	1.1	i	1.1
CCOC(=O)c1cc2sc(C)cc2n1CC(=O)Nc1cccc(C)c1C	101	-4	.	.	-0.3	i	0.92
O=C(NCc1ccccc1)NC1(C(=O)N2CCCC2)CCCCC1	99	-11	-23	103	-3.0	i	1
Cc1cnc(NC(=O)CCNC(=O)c2ccccc2Cl)s1	105	-3	.	.	.	i	0.74
COc1ccc2c(c1OC)C(=O)OC2CC(=O)c1ccc2c(c1)OCO2 (stereo unspecified)	111	-1	45	124	-1.8	i	0.95
O=C(Nc1nc2cc3c(cc2s1)OCO3)c1ccc(N2C(=O)CCC2=O)cc1	79	.	.	.	.	i	0.93
CCC1COC(c2cccn2Cc2ccccc2Cl)=N1 (stereo unspecified)	95	-2	.	.	.	i	0.92
O=C(c1nc2nc(-c3cccs3)cc(C(F)(F)F)n2n1)N1CCN(Cc2ccccc2)CC1	103	-7	44	106	-0.1	i	0.95

Another view of part of the listing above.
Compound,RGS16-Gao HTS,PKD1 kinase inh,Insulin prom inh,Insulin prom inh cell count,GALR2 agonist,HSV replic up,HSV replic up primary fold
Cc1cccc(Nc2nc(NCCCN3CCOCC3)nc(N)c2[N+](=O)[O-])c1,106,2,32,120,0.7,i,0.71
CCOC(=O)COc1ccc(N)cc1CC(NC(C)=O)(C(=O)OCC)C(=O)OCC,93,-5,.,.,-0.1,i,0.67
